Hck Nef HTS – inhibitors of human Hck kinase activated by Nef; P08631; Recombinant Hck-YEEI plus Nef, Z-Lyte FRET kinase assay; inhibition, % at 20 µM; actives 0.68% (n = 220,000);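 active means Hck-Nef kinase inhibition above about 50%, limit read from the data; inactive means inhibition below that limit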;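 further: 0% = DMSO with Hck plus Nef and 100% = Hck alone without Nef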
FXIIa inh 1536 – factor XIIa (human) inhibition; P00748; purified FXIIa, Boc-QGR-AMC fluorogenic substrate, 2 h; inhibition, % at 5 µM; actives 0.3% (n = 220,000); AID 800; in the data active means inhibition above about 40%;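 further: 0% = enzyme with no compound and 100% = blank without enzyme; many of its hits are not listed in these tables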
thrombin 1536 – blocks human thrombin protease activity. inhibition, % at 5 µM. alpha-thrombin, Boc-VPR-AMC fluorogenic substrate cleavage. actives 0.26% (n = 220,000). AID 1046;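 active means inhibition at or above 40%; inactive means inhibition below 40%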;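 further: 0% = enzyme with no compound and 100% = wells without enzyme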
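Assay system: human alpha-thrombin enzyme. Reagent: Boc-VPR-AMC substrate, 15 µM final. Compound dosing: one concentration per compound, 5 µM, with 0.2% DMSO. Incubation: room-temperature reaction. Technique: AMC fluorescence, 355/460 nm. Measure: % inhibition relative to enzyme controls and enzyme-free blanks.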
KLK5 inh – kallikrein 5 (human) inhibition; Q9Y337; recombinant hK5, fluorogenic AMC substrate cleavage; inhibition, % at 5 µM; actives 0.59% (n = 210,000); AID 873;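 active means inhibition of 40% or more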;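 further: 0% = enzyme controls without compound and 100% = no-enzyme blanks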
FXIa inh – factor XIa (human) inhibition | P03951 | purified FXIa, Boc-Glu-Ala-Arg-AMC fluorogenic substrate | inhibition, % at 5 µM | actives 0.14% (n = 220,000);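 active means inhibition of at least 40%; inactive means inhibition below 40%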;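 further: fluorescence of freed AMC excited at 355 nm; 0% = enzyme without compound and 100% = no enzyme blank; many of its hits are not listed in these tables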
Wee1 degr inh – inhibitors of human Wee1 degradation | P30291 | HeLa Luc-Wee1K328M stability, luciferase luminescence; 100% = proteasome inhibitor MG132 effect | reporter increase, % at 5 µM | actives 1.2% (n = 220,000) | AID 1321;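 active means activation above the mean of all tested compounds plus 3 SD, set per screening run, cut at about 8.8% in these data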;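 further: cells exposed to compound for 20 h before luminescence read; 0% = DMSO alone and 100% = MG132 at 30 µM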
Target sequence (P30291 whole entry K328M): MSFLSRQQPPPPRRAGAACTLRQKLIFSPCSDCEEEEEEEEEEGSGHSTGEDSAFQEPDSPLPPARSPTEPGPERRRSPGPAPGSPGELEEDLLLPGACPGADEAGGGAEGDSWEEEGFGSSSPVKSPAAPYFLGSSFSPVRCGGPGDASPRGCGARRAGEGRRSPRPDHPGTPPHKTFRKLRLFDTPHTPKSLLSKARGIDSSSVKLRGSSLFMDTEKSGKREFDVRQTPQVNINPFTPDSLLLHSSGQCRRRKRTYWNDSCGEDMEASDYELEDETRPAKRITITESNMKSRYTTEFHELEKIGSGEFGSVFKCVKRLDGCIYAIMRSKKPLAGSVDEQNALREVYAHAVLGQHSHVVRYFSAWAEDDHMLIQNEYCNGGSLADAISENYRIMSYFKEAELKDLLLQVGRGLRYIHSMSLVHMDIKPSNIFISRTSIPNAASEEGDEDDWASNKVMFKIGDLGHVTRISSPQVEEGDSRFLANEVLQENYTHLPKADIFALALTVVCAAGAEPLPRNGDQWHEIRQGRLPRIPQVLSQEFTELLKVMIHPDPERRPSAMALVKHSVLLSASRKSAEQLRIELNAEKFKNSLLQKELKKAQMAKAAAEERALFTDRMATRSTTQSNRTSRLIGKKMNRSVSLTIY
14-3-3 Bad PPI – disrupts binding of bovine 14-3-3 zeta to phospho-Bad peptide; AID 781; inhibition, % at 21.7 µM; TR-FRET 14-3-3zeta/Dy647-pBad peptide displacement, 1 h; P63103; actives 0.71% (n = 220,000);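 active means inhibition above about 70%, limit read from the data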;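 further: 0% = full 14-3-3 plus peptide FRET controls and 100% = background without 14-3-3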
Target sequence (P63103 whole entry, looked up): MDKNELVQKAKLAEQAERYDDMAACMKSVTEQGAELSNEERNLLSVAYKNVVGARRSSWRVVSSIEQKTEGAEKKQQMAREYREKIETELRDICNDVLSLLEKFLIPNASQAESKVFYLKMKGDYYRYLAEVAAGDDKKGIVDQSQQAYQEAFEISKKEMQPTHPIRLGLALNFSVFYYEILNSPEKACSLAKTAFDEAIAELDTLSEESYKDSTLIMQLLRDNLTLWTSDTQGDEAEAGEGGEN
The depositor's hits bear a star; . = no result given; & = joins results of further samples; [ ] = remark or other dose. A portion of the library; count on the stated rates, not on these rows.

SMILES	Hck Nef HTS	FXIIa inh 1536	thrombin 1536	KLK5 inh	FXIa inh	Wee1 degr inh	14-3-3 Bad PPI
CC1CCc2c(sc(NC(=O)CSc3nnc(-c4ccccc4)o3)c2C#N)C1 (centres undefined)	3	12	-6	-5	4	-1	6
Cc1ccc(CS(=O)(=O)CCC(=O)N2CCOCC2)cc1	0	4	-1	1	-8	-2	12
COc1ccc(/C=N/Nc2nonc2N)cc1	1	13	4	-4	8	4	-5
Cc1ccc(Oc2nnc(-c3ccccc3)cc2C#N)cc1	0	2	2	-3	-4	2	11[fluorescence artefact?]
Cc1ccc(S(=O)(=O)Nc2ccccc2-c2ccccc2NS(=O)(=O)c2ccc(C)cc2)cc1	2	27	27	34	16	-2	9
CC(C)(C)c1ccc(C(=O)c2c[nH]c(C(=O)NCCCn3ccnc3)c2)cc1	0	-3	-1	-5	-4	-3	-5
C=CCn1c(CSCc2ccccc2)nnc1SCC(=O)NCc1ccccc1	-2	2	2	-10	0	5	-15[fluorescence artefact?]
O=C(Oc1cc2oc(=O)cc(-c3ccccc3)c2cc1Cl)C1CCCCC1	4	9	1	-15	1	4	-9
O=C(CSc1ncnc2c1cnn2CCc1ccccc1)Nc1ccc(F)cc1	1	15	2	1	18	0	5
O=C(Nc1ccc2c(c1)OCO2)c1ccc[n+]([O-])c1	2	1	0	3	0	3	-12
CCOC(=O)CC(=O)CSc1nc(-c2ccccc2)cc(-c2ccc(Cl)cc2)c1C#N	3	-7	-4	2	-5	-2	6
COc1ccc(/C=C/c2ccncc2)cc1	-1	8	6	-43	0	1	0[fluorescence artefact?]
CCCCCn1c(SCc2ccncc2)nc2cc(C(=O)NCc3ccco3)ccc2c1=O	1	12	-1	10	-18	0	5
CCOC(=O)C(/C(N)=N/C(=O)Nc1ccccc1)=C(\C)O	2	10	1	-1	4	-3	-10
Cc1cnc(C(=O)OCC(=O)Nc2ccc(Cl)cc2)cn1	1	15	-3	0	10	4	9
S=c1nc(-c2cccc(Br)c2)[nH][nH]1	4	26	-2	-76	19	0	-4[fluorescence artefact?]
O=C(c1ccco1)N1CCN(C(=O)c2ccc(COc3ccc4c(c3)CCC4)o2)CC1	-2	10	-2	-3	4	6	-2
CCn1c(=O)n(CC)c2cc([N+](=O)[O-])ccc21	-1	6	-4	1	-8	-4	9
CC(c1ccc(F)cc1)n1c(-c2ccc3ccccc3n2)n[nH]c1=S (centres undefined)	2	10	2	-6	4	0	-10
CN(/C=C/C(=O)C(F)(F)F)Cc1ccccc1	0	11	5	-12	3	-2	19[fluorescence artefact?]
O=S(=O)(Cc1ccc(Cl)cc1)c1ccccc1-c1nnc(-c2ccc(Cl)cc2)o1	1	9	0	-13	2	3	-16
Cc1ccc(-c2ccc(=O)n(CC(=O)NCCN(C)C)n2)cc1	-1	13	0	-4	1	-2	8
Cc1ccc(-c2nnc(SCC(=O)NNC(=O)COc3cccc(C)c3)n2C)cc1	0	8	-1	-140	-7	1	-3
COc1ccc(OCc2nnc(SCC(=O)N3c4ccccc4Sc4ccc(Cl)cc43)o2)cc1	1	6	-7	-10	-11	-3	10

Given in markdown: entries from further up
| compound | Hck Nef HTS | FXIIa inh 1536 | thrombin 1536 | KLK5 inh | FXIa inh | Wee1 degr inh | 14-3-3 Bad PPI |
| --- | --- | --- | --- | --- | --- | --- | --- |
| CCCCCn1c(SCc2ccncc2)nc2cc(C(=O)NCc3ccco3)ccc2c1=O | 1 | 12 | -1 | 10 | -18 | 0 | 5 |
| CCOC(=O)C(/C(N)=N/C(=O)Nc1ccccc1)=C(\C)O | 2 | 10 | 1 | -1 | 4 | -3 | -10 |
| Cc1cnc(C(=O)OCC(=O)Nc2ccc(Cl)cc2)cn1 | 1 | 15 | -3 | 0 | 10 | 4 | 9 |

Continued:
SMILES	Hck Nef HTS	FXIIa inh 1536	thrombin 1536	KLK5 inh	FXIa inh	Wee1 degr inh	14-3-3 Bad PPI
O=S(=O)(Nc1ccc(Cc2ccncc2)cc1)c1ccc(Cl)c(Cl)c1	0	6	-2	-2	0	-2	63
CCOC(=O)C1=C(CSc2nc(-c3ccccc3)ccc2C#N)OC(N)=C(C#N)C1c1ccc(OC)cc1 (centres undefined)	-2	-2	-3	-23	-12	1	-13
CC(=O)Nc1cccc(N2C(=O)CCC2=O)c1	1	1	-5	-1	-3	-1	-4
Cn1c(=O)c2c(nc(NCC3CCCO3)n2Cc2cccc(Br)c2)n(C)c1=O (centres undefined)	1	18	4	-19	3	-1	-1
Cc1ccc2cn[nH]c2c1NC(=S)NC(=O)c1ccccc1	2	-4	-7	-12	-6	-2	-8
CN(C)/C=C(\C#N)C(=O)c1cccnc1Oc1ccc(F)cc1F	0	15	-2	-9	3	-2	4
O=C(Cn1c(SCC(=O)N2CCc3ccccc3C2)nc2ccccc21)NC1CCCC1	-1	13	2	-11	2	3	4
CC(C)OC(=O)C(CC(=O)O)N1CCOCC1 (centres undefined)	1	14	-1	-5	5	0	0
Cc1ccc(S(=O)(=O)N2CCC(CN3C(=O)c4cccc5cccc(c45)C3=O)CC2)cc1	-2	10	-3	8	-5	2	-9
CC(C)Oc1ccc(C2CC(=O)NC3=C2C(=O)CCC3)cc1 (centres undefined)	1	0	-2	1	-5	2	3
CCCN(c1nc(C)cc(OC)n1)S(=O)(=O)c1ccccc1	1	22	3	-14	1	-1	10[fluorescence artefact?]
CC(=O)C1C(c2cccc(F)c2)NC(=O)NC1(O)C(F)(F)F (centres undefined)	4	10	0	-3	-6	1	-3
Cc1cccc(Oc2ncnc3onc(C)c23)c1C	1	3	-4	-15	-3	0	85*[fluorescence artefact?]
CN1C(=O)C(CC(N)=O)N(NC(=O)c2ccc(Cl)cc2)C1=S (centres undefined)	1	29	5	-29	21	0	5
CCCN(CCC)CCNC(=O)C1CCCN(S(=O)(=O)c2ccc3c(c2)oc(=O)n3C)C1 (centres undefined)	0	16	1	-5	6	-2	-5
CC12CCC(C(=O)N(NC(=O)c3ccc(O)cc3)C1=O)C2(C)C (centres undefined)	-1	-7	-6	2	-20	0	-3[fluorescence artefact?]
CC1=NN(c2ccc(C)cc2C)C(=O)C1C(c1ccccc1)C1C(=O)N(c2ccc(C)cc2C)N=C1C (centres undefined)	-1	13	-4	24	1	-2	1
Cc1ccccc1C(=O)Nc1ccccc1-c1nnn(CC(=O)Nc2ccc3c(c2)OCCO3)n1	1	10	1	1	3	-2	.
CCc1nnc(NC=C2C(=O)OC(C)(C)OC2=O)s1	0	6	-1	-1	-2	-1	43[fluorescence artefact?]
Clc1ccc(CSc2nnc(-c3cccnc3)o2)cc1	-1	-1	-5	-6	-2	2	-5[fluorescence artefact?]
Cc1cccc(NC(=S)NC(=O)c2cc(-c3ccccc3)nc3ccccc23)c1	1	10	1	-10	4	0	-9
N#CCCn1ncc2ccccc21	0	16	-2	1	2	4	-1
CCOC(=O)C1CCCN(C(=O)C2CCN(S(=O)(=O)CC)CC2)C1 (centres undefined)	0	3	1	4	0	1	2
S=c1[nH]nc(C23CC4CC(CC(C4)C2)C3)n1Cc1ccco1	0	14	0	5	6	1	-4
CN(C)c1ncc(S(=O)(=O)c2ccccc2)c(-c2ccc(Cl)cc2Cl)n1	-1	-6	-3	0	-8	2	14
Cc1cccnc1NC(=S)NC(=O)c1cccs1	2	-13	3	1	3	13*	-19
O=C(/C=C/c1ccccc1Cl)Nc1ccncc1	1	14	0	-31	3	0	24
Cc1[nH]c(=O)c(C#N)c2c1CSC(C)(C)C2	-2	8	2	6	0	-1	-7
CCc1ccc(OCCNC(=O)c2cc(SC)ccc2Cl)cc1	-1	18	1	-14	8	5	-11[fluorescence artefact?]
Cc1cc(C)c2c(-n3cccc3)c(C(=O)NNS(=O)(=O)c3ccc(Br)cc3)sc2n1	3	14	5	3	15	-2	1
N#Cc1c(-c2cccs2)nc(SCC(=O)c2ccc(Br)cc2)[nH]c1=O	73*	13	3	2	4	-3	-2
Cc1ccc(OCCn2c(CCNC(=O)C(C)C)nc3ccccc32)cc1	1	9	0	-12	-1	2	0
Cc1cc(C)cc(N(C(=O)c2csnn2)C(C(=O)NC(C)(C)C)c2cccs2)c1 (centres undefined)	-1	-15	-5	-3	-9	-2	-14
Cc1cc(OC(C)C)nc(NCc2ccccc2)n1	-1	9	-1	-19	8	0	-8
Cc1cc(C)c2[nH]c(=O)c(CN(Cc3ccco3)C(=O)c3cccs3)cc2c1	0	18	-1	-124	-7	-2	11
N/C(=N\OC(=O)c1cccc(Br)c1)c1ccc(Br)cc1	0	17	4	2	3	2	-2

Ordered by value in KLK5 inh (smallest number first): three of the compounds above.
SMILES	Hck Nef HTS	FXIIa inh 1536	thrombin 1536	KLK5 inh	FXIa inh	Wee1 degr inh	14-3-3 Bad PPI
Cc1cc(C)c2[nH]c(=O)c(CN(Cc3ccco3)C(=O)c3cccs3)cc2c1	0	18	-1	-124	-7	-2	11
O=C(/C=C/c1ccccc1Cl)Nc1ccncc1	1	14	0	-31	3	0	24
N/C(=N\OC(=O)c1cccc(Br)c1)c1ccc(Br)cc1	0	17	4	2	3	2	-2

Following part
SMILES	Hck Nef HTS	FXIIa inh 1536	thrombin 1536	KLK5 inh	FXIa inh	Wee1 degr inh	14-3-3 Bad PPI
C/C(=N/OC(=O)c1ccc(F)cc1)c1ccc(C)cc1	1	-10	-6	-2	-2	-1	4[fluorescence artefact?]
COCc1nnc(NC(=O)c2ccc(S(=O)(=O)N3CCCCCC3)cc2)o1	-1	17	-1	-6	2	0	-2
Cn1nc(C(F)(F)F)c(C(=O)Nc2ccc(C(F)(F)F)cc2)c1Cl	2	12	4	-8	3	-3	-2
COc1cc(NC(=O)c2ccco2)c(C(=O)O)cc1OC	1	8	-3	6	-5	-1	25
O=C(NCCCN1CCCCCC1)C1CC(=O)N(C2CCCC2)C1 (centres undefined)	3	5	-7	-26	1	3	-34
CCOC(=O)c1cnc2c(N=Nc3ccccc3)c(N)nn2c1N	1	23	8	-12	6	0	1
O=C(/C=C/c1ccc(F)cc1)NCCC1=CCCCC1	1	19	0	5	7	1	9
CCOc1ccc2c(=O)c(Oc3ccccc3)c(C)oc2c1	2	7	-6	3	-10	-1	-1[fluorescence artefact?]
C=CCn1c(Cc2ccc(OC)cc2)nnc1SCC(=O)c1cccc([N+](=O)[O-])c1	-1	8	-1	-16	1	-3	1
O=C1OCC(CO)(CO)N=C1NNc1ccc(Cl)c(Cl)c1	0	3	-6	-9	3	-1	14[fluorescence artefact?]
C=CCOC(=O)C1=C(C)NC(SC)=C(C#N)C1c1cccs1 (centres undefined)	2	2	-4	7	-7	-1	-4[fluorescence artefact?]
Cc1ccc(C)c(NC(=S)c2ccccn2)c1	0	3	1	-24	-8	-1	-5
O=C(Cc1cc(=O)[nH][nH]1)N/N=C/C(Cl)=C/c1ccccc1	0&-1	3	-3	-17	4	4&2	-8&6[fluorescence artefact?]
O=C(Nc1cnc2ccccn2c1=O)c1ccc(Cl)cc1	5	22	0	-14	14	-2	4
O=C1c2ccccc2CCC12N=NCC2c1ccccc1 (centres undefined)	0	17	5	-18	4	0	-2
Cc1cc(C)c(C#N)c(SCC(=O)C(C)(C)C)n1	0	15	-1	-17	0	2	0
Cc1ccc(NC(=O)NNc2cccc(Cl)n2)cc1	0	4	-5	-27	-5	0	-16
Cc1ccc(C(=O)N2CCN(c3ncccn3)CC2)o1	-1	20	4	-9	3	-1	-4[fluorescence artefact?]
Cc1ccc(S(=O)(=O)/N=C(\c2ccc(Cl)cc2)N2CCOCC2)cc1	1	-1	-7	18	-13	1	-6
Cc1c(NC(=O)/C(=C\c2ccccc2)NC(=O)c2ccccc2)c(=O)n(-c2ccccc2)n1C	2	5	7	6	5	-2	3
CC(C)NC(=O)c1n[nH]c(=O)c2ccccc12	2	12	0	-6	6	1	-3
Cc1nn(CC(=O)N2CCOCC2)c(C)c1[N+](=O)[O-]	-1	19	1	-3	4	-4	3

Individual results from the results shown:
Reading for `Cc1cc(C)c(C#N)c(SCC(=O)C(C)(C)C)n1` in FXIa inh: 0
Reading for `Cc1c(NC(=O)/C(=C\c2ccccc2)NC(=O)c2ccccc2)c(=O)n(-c2ccccc2)n1C` in thrombin 1536: 7
Reading for `Cc1ccc(NC(=O)NNc2cccc(Cl)n2)cc1` in Hck Nef HTS: 0
